Source: PubChem BioAssay (National Center for Advancing Translational Sciences (NCATS))
TRPML1 inh: human mucolipin-1 channel inhibition; Q9GZU1; TRPML1-inducible cells, Ca2+ dye fluorescence, FDSS; hits give low values; inhibition of EC80 agonist-evoked calcium signal; activity change, negative = inhibition, % (no concentration beside the values); 390,000 tested, 0.02% active; AID 624415; in the data active means activity change below about -50%; inconclusive means about -30% to -50%; inactive means above about -30%;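 also: stimulus is agonist 54-4 at its EC80 concentration; % is scaled to controls: 0 for no effect and ±100 for the full control effect; compound concentration not given in the record; the text of the record puts the active cut at -80%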
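Tet-induced TRPML1-DL cells loaded with Ca8 no-wash calcium dye were read kinetically on FDSS. Compound addition was followed by EC80 agonist 54-4 (4 uM final); inhibition was read over 110 s.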
TRPML1 agonist: human mucolipin-1 channel agonism; Q9GZU1; TRPML1-expressing cells, Ca2+ dye fluorescence, FDSS; host cell line not named in the record; reference of the full effect not given here; activation, % (test concentration not listed); 410,000 tested, 0.12% active; in the data active = activation above about 50%; inconclusive = about 30% to 50%; inactive = below about 30%; also: 0% is about no effect; the text of the record puts the active cut at 80%
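Calcium fluorescence on an FDSS kinetic reader gave the read-out. Tet-induced TRPML1-DL cells were plated overnight, dye-loaded (Ca8 with quencher, 45-90 min, room temperature, dark), then read 110 s after compound addition, and again 110 s after 4uM final 54-4 (EC80).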
PINK1 modulator: PINK1 expression modulation; PINK1 immunofluorescence, high-content cytometry, 24 h; Potency, µM (top dose mostly 76.6 µM), for inactives: top-dose activation (PINK1 increase), usual class: activators; 410,000 tested, 0.2% active; active = well fitted activation curve with a large enough effect; inconclusive = small, poorly fitted or top-dose-only effect; inactive = flat fitted curve, though single readings scatter; cell line not stated here;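 also: potency is read from the fitted curve at half-maximal effect; % of control where 0% means no effect; nearly all actives have a fitted effect of over 65% in size; a mitochondrial uncoupler was the plate control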
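Measures PINK1 amount and localization on or inside mitochondria by immunofluorescence. Stable cells get compounds at 5 concentrations for 24 hours before fixation and staining; CCCP controls included.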
CtBP-E1A inh: inhibitors of CtBP/E1A interaction. AlphaScreen GST-E1A/His-CtBP binding, 1536-well; hits give low values; control for the full effect not named in the record. activity change, % (no concentration beside the values). 340,000 tested, 0.49% active. AID 651724; in the data active means activity change below about -65%; inconclusive means about -30% to -65%; inactive means above about -30%; also: % is scaled to controls: 0 for no effect and ±100 for the full control effect; compound concentration not given in the record
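AlphaScreen with 125 nM GST-E1A and 125 nM His-CtBP (5X stocks) in Tris pH 8.0, 300 mM NaCl, BSA, Tween 20, TCEP. Compounds preincubated 2 h at 37 deg C, then glutathione donor/nickel acceptor beads added for 1 h at 37 deg C in dark.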
Six1-Eya2 inh: blocks human Six1 binding to Eya2 | 360,000 tested, 0.56% active | AlphaScreen GST-Six1/His-Eya2 binding, biochemical; hits give low values; control for the full effect not named in the record | activity change, % (no concentration beside the values) | Q15475+O00167; in the data active = activity change below about -65%; inconclusive = about -30% to -65%; inactive = above about -30%; also: % is scaled to controls: 0 for no effect and ±100 for the full control effect; compound concentration not given in the record
Target sequence (O00167 whole entry, looked up): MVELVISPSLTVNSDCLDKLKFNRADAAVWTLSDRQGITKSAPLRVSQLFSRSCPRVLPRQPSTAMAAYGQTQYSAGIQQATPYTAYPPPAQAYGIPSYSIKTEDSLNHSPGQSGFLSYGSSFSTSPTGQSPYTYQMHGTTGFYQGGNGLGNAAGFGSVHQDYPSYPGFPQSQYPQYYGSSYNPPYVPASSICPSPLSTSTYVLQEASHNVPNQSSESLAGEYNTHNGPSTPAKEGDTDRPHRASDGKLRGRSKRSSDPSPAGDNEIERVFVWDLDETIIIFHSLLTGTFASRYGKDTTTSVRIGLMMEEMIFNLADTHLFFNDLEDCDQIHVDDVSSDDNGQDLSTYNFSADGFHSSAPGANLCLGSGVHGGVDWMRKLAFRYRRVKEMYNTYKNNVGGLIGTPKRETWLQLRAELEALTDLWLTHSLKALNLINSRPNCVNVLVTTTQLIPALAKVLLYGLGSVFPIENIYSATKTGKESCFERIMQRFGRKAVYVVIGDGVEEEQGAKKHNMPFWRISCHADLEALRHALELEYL
Target sequence (Q15475 whole entry, looked up): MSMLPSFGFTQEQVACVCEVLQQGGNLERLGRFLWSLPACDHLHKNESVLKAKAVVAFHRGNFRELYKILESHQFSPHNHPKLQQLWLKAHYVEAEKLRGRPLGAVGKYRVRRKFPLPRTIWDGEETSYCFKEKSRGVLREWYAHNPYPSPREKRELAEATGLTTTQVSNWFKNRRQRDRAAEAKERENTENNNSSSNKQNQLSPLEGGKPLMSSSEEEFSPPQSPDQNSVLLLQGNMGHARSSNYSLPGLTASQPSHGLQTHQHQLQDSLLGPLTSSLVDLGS
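Compounds are tested against tagged Six1 and Eya2 proteins bridged by glutathione donor and nickel acceptor beads; after a one-hour incubation at 37 °C without light, AlphaScreen emission is recorded.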
D2 agonist: human D2 receptor agonism in beta-arrestin assay. AID 624465. 360,000 tested, 0.084% active. DiscoveRx PathHunter D2 beta-arrestin, luminescence, 90 min; 100% = 57 uM dopamine signal. activation, % (concentration not given with the values). P14416; in the data active = activation above about 40%; inconclusive = about 15% to 40%; inactive = below about 15%; also: compound concentration not given in the record; the text of the record calls up to 30% inactive
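DiscoveRx PathHunter D2 beta-arrestin cells (2,100/well) attached overnight, then compound-stimulated 90 min at 37 C in HBSS/10 mM HEPES/0.1% Tween-20 buffer; beta-galactosidase complementation read by luminescence after 1 h at ambient temperature. Dopamine 57 uM final (EC100) as control.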
* hit, by the source's call; u = inconclusive; x = not tested or not shown; [ ] = dose if it differs, or a comment. The order is random; overall some 1% were active at least once.

SMILES | TRPML1 inh | TRPML1 agonist | PINK1 modulator | CtBP-E1A inh | Six1-Eya2 inh | D2 agonist
CC(=O)c1ccc(NC(=O)CCc2nc3sc4c(c3c(=O)[nH]2)CCCC4)cc1 | -11 | -0.3 | 9.2% | 0 | -19 | 0.7
NS(=O)(=O)c1ccc(NC(=O)COc2ncnc3c2cnn3-c2ccccc2)cc1 | -21 | -0.6 | 0.2% | 1 | 0 | -2.6
CCc1ccc(NC(=S)NCc2ccccc2)cc1 | 21 | 0.6 | 1.0% | 0 | -3 | 1.0
O=S(=O)(c1ccc(F)cc1)N1CCN(c2ncnc3c2cnn3-c2ccccc2)CC1 | 34 | 3.0 | 9.9% | 3 | 8 | -0.5
O=C1CN(C(=O)COC(=O)C2CC(=O)N(Cc3ccco3)C2)c2ccccc2N1 (stereo not given) | 6 | -0.9 | -0.1% | -5 | -14 | -3.7
Cc1c(Cl)cccc1NC(=O)CNC(=O)C1CC(=O)N(CCc2ccccc2)C1 (stereo not given) | 14 | 1.2 | 1.2% | -2 | 5 | 2.6
Cc1ccc(Cn2c(NCCc3ccccc3)nc3c2c(=O)n(C)c(=O)n3C)cc1 | 41 | 1.7 | -2.8%[38.3 µM] | 1 | 1 | -0.3
CCOc1ccc(NC(=O)Cn2c(=O)cc(C)c3c(C)nn(-c4ccc(CC)cc4)c32)cc1 | -2 | 0.3 | 1.7% | x | x | x
COc1ccc(-c2ccc(CN3C(C)C(=O)N(Cc4cn(CCC5OCCO5)nn4)CCS3(=O)=O)cc2)cc1OC (stereo not given) | -5 | -0.7 | 2.5% | 7 | 3 | -2.0
COc1cccc(CNCc2ccccc2OC)c1 | 1 | -0.5 | 2.9% | x | 4 | -1.5
COc1ccccc1NC(=O)/C=C1\NC(=O)CS1 | 0 | -1.4 | 2.2% | -2 | 2 | -3.1
CCOc1ccccc1OCCCC(=O)Nc1cc(S(=O)(=O)N2CCCCC2)ccc1C | -13 | -0.1 | 0.2% | 3 | -1 | -2.2
Cc1nc(C)c(-c2ccnc(/N=C/NO)n2)s1 | -15 | -0.1 | -3.0% | u | -29 | -0.8
Cc1ccccc1S(=O)(=O)N1C[C@H]2CON(C)[C@H]2C[C@H]1c1cccc(Br)c1 | -3 | -0.9 | -1.1% | 0 | -2 | 1.1
COC(=O)COc1ccc2c(c1)O/C(=C\c1ccco1)C2=O | 11 | -1.1 | 0.2% | 5 | -16 | -2.9
O=C1c2ccccc2C(=O)N1CNc1ccccc1 | 61 | 0.0 | -0.1% | 5 | -1 | -0.7
O=C(O)CCC(=O)Nc1ccc(Br)cn1 | 4 | -1.0 | 0.9% | -1 | 2 | -2.8
CC1=C(C(=O)Nc2ccc(C)cc2Cl)C2(CCCCC2)OC1=O | -3 | 3.9 | -0.8% | x | x | x
CC(C)(C)c1cc(C(=O)NNc2cc(C(F)(F)F)ccc2Cl)n(Cc2ccccc2)n1 | 5 | 7.7 | u | 7 | 9 | 2.9
Cc1ccc2cccc(NC(=O)c3cccc4ccccc34)c2n1 | -11 | -0.2 | 5.3% | x | x | x
CCc1ccc(-c2nn(Cc3ccccc3)cc2/C=C/C(=O)O)cc1 | 4 | 0.5 | 0.5% | -1 | 4 | -2.1
CCN(CC)CCSc1nc(O)c(-c2ccccc2)c(=O)n1-c1ccccc1 | 2 | -0.5 | 2.7% | -4 | 1 | -2.4
COc1ccc(C(=O)COC(=O)C2CCN(c3ccc(C(F)(F)F)cn3)CC2)c(OC)c1 | -12 | 0.5 | 0.1% | 21 | 7 | -0.5
O=C(CSCC(=O)N1CCCc2ccccc21)Nc1nc(-c2ccccc2)cs1 | 1 | 0.2 | 0.8% | -11 | -4 | 3.0
CCOC(=O)c1sc(C)c2c(=O)n(CC(=O)c3ccc(Br)cc3)nnc12 | 8 | -0.1 | 4.0% | -3 | -2 | -4.2
SMILES | TRPML1 inh | TRPML1 agonist | PINK1 modulator | CtBP-E1A inh | Six1-Eya2 inh | D2 agonist
COc1ccc(Cc2nc(C(=O)Nc3ccc(Cl)cc3)cs2)cc1 | 47 | 5.8 | -0.7% | 22 | 16 | 0.6
CCOC(=O)C1=C[C@@H](C(C)(C)C)N(S(=O)(=O)c2ccc(C)cc2)[C@H]1c1ccc(F)cc1 | -9 | 0.6 | 7.2% | 2 | -1 | -2.1
O[C@H]1C[C@H](c2ccccc2)N(CC2CCCCC2)C[C@@H]1n1cc(-c2ccc(F)cc2)nn1 | 43 | 0.3 | -0.4% | 3 | 2 | -7.4
NS(=O)(=O)c1ccc(CNC(=O)CSc2ccccc2)cc1 | -20 | -0.1 | 0.5% | -8 | -3 | -2.1
COc1cccc(-c2noc(Cn3nc(C(=O)O)c4ccccc4c3=O)n2)c1 | 13 | 0.2 | 3.0% | 1 | -16 | 2.6
O=C(CSc1ccccc1)Nc1ccc(N2CCOCC2)cc1 | 32 | 0.2 | 0.2%[38.3 µM] | 1 | 0 | -1.0
CCOc1ccc(NC(=O)/C(=C\c2ccc(OC(C)=O)c(OC)c2)NC(C)=O)cc1 | 22 | 0.7 | -0.3% | -5 | 3 | -2.8
COc1ccc(S(=O)(=O)N2CCCCC2)cc1NC(=O)c1[nH]c(C)c(C(C)=O)c1C | 13 | -0.7 | 3.4% | -10 | -5 | 4.5
COc1ccc(C(=O)COC(=O)C2CC3CCCC(C2)C3=O)cc1Br (stereo not given) | 36 | 0.5 | -0.6% | 7 | -3 | -3.4
Cc1ccc(S(=O)(=O)c2nc(S(=O)(=O)c3ccc(C)cc3)c(NCCCOC(C)C)s2)cc1 | -7 | 1.9 | -0.9% | x | x | x
CCc1ccccc1OCCCN1CCCC1 | 11 | 0.4 | 1.9% | x | 4 | 7.3
O=C(c1nnc(-c2ccncc2)o1)c1ccccc1Cl | -8 | -0.1 | -2.6%[38.3 µM] | 8 | 3 | -0.2
COc1ccc(NS(=O)(=O)c2ccc(C)c(NC(=O)CN3C(=O)NC4(CCCC4)C3=O)c2)cc1 | -10 | -0.5 | 0.1% | 4 | 5 | 2.1
O=c1c2[nH]c3ccc(F)cc3c2nc2n1CCS2 | 12 | -0.2 | 0.3% | x | -23 | 7.2
COC1C(C)=C(C)C(=O)N1Cc1ccccc1 (stereo not given) | -7 | -0.7 | 0.0% | x | 7 | -2.0
CC(=O)c1cccc(NC(=O)CSc2nc(=O)n(Cc3cccnc3)c3c2CCC3)c1 | -3 | -0.1 | 5.0% | x | x | x
CC(=O)C1=CCC(c2ccccc2)N(S(C)(=O)=O)C1 (stereo not given) | x | -0.6 | 1.8% | 1 | 7 | -5.7
O=C(COc1ccc(Cl)cc1Br)Nc1ccncc1 | -12 | -1.7 | 0.2% | 9 | 4 | 7.4
O=C(NCc1cccnc1)c1cccc(NC(=O)c2ccco2)c1 | -21 | 0.3 | -1.3% | 14 | 7 | -8.0
COCCNC(=S)N(CCc1c(C)[nH]c2ccc(C)cc12)Cc1cc(OC)c(OC)c(OC)c1 | -4 | -0.9 | 2.0% | -22 | -14 | 4.3
COc1ccc(/C=C2\SC(N3CCc4ccccc4C3)=NC2=O)cc1 | 14 | 1.9 | 8.4% | -4 | -19 | -4.6
Cc1cccc(-[n+]2c(-c3cccc(Br)c3)[nH]c3nc4ccccc4nc32)c1 | -4 | 2.5 | 2.6% | 7 | 0 | -1.1
Cn1c(C(=O)O)c(CC(=O)Nc2ccc3c(c2)OCCO3)c2ccccc21 | -9 | 0.8 | -0.3% | -15 | -18 | -3.3
CCOC(=O)N(C)c1c(CC)nc2c(OCc3ccc(F)cc3)cccn12 | x | -1.0 | 0.5% | 6 | 2 | 4.5
CCCN1C(=O)SC(CC(=O)Nc2ccc(Br)cc2)C1=O (stereo not given) | -7 | 0.2 | 0.5% | 2 | 4 | -0.9
SMILES | TRPML1 inh | TRPML1 agonist | PINK1 modulator | CtBP-E1A inh | Six1-Eya2 inh | D2 agonist
COc1cc(/C=C2/S/C(=N/S(=O)(=O)Cc3ccccc3)NC2=O)c([N+](=O)[O-])cc1OC | 6 | 0.2 | -0.7% | 0 | -26 | 1.2
Cc1ccc(N2C(=O)CSC23C(=O)N(CC(=O)Nc2ccccc2F)c2ccccc23)cc1C (stereo not given) | 7 | 4.1 | 7.0% | x | x | x
COc1ccccc1/C=C/C=N/NC(=O)CCC1C(=O)NN=C1C (stereo not given) | -8 | 1.6 | 1.3% | -22 | 5 | -4.6
CC1=C(n2ccnc2)CCC1=O | 1 | -0.6 | -0.7% | 1 | 0 | -1.7
CCOC(=O)N1CCC(N2C(=O)c3ccc(C(=O)Nc4ccc(F)cc4F)cc3C2=O)CC1 | -11 | 0.0 | 3.0% | 7 | 0 | -6.8
COc1ccc(-c2nc3ccc(Br)cn3c2Cc2ccccc2)cc1OC | -14 | -0.6 | 19% | 4 | -7 | -2.9
Cn1nc(C2CC2)cc1NC(=O)C1(C)CCN1C(=O)CCc1ccccc1 (stereo not given) | 5 | 0.1 | 1.6% | 3 | 6 | -2.1
COc1cccc(C=N[C@@H](CO)[C@@H](O)c2ccc([N+](=O)[O-])cc2)c1O | -12 | 0.0 | 0.2% | -13 | 2 | -0.9
Cc1ccc(/C=N/NC(=O)CSc2nnc(-c3ccc(Cl)cc3)n2-c2ccc(Cl)cc2)o1 | 47 | 1.7 | 2.9% | 8 | 0 | 15
CCCCCCn1c(O)c(/C=C2\C=NN=C2c2ccccc2)sc1=S | 1 | 0.4 | -3.3% | -5 | u | -4.4
O=c1oc(-c2ccccc2)nc2c1C1(CCCCC1)Cc1ccccc1-2 | -9 | 1.4 | -0.2% | -19 | 18 | 0.9
Clc1ccc(SCc2cc(Cl)nc(-c3ccccc3)n2)cc1 | -24 | 1.1 | -0.4%[38.3 µM] | 11 | 73 | -0.7
CCOC(=O)N1CCN(c2c(NCCCOC(C)C)c(=O)c2=O)CC1 | -13 | -0.4 | 2.3% | 0 | 15 | -3.0
Cc1cccc(NC(=O)CNC(=O)COc2cc(F)ccc2[N+](=O)[O-])c1C | 10 | 1.3 | 1.4% | -12 | 6 | -3.6
O=C(NCC1CC1)c1cc2c(c(-c3cccc(-c4ccccc4F)c3)n1)[C@H](CCO)N(C(=O)CC1CC1)C2 | x | 2.0 | -0.9% | -10 | -6 | x
CCCCN(C)C(=O)c1nc2ccccn2c1CN1CCC[C@H]1CO | 31 | 0.2 | 0.8% | 4 | 9 | 0.0
COc1cccc(-n2ccn(CC(=O)c3ccc(F)cc3)c(=O)c2=O)c1 | 10 | -0.3 | 0.1% | x | x | x

Profiles as entered above. Order of screens: TRPML1 inh | TRPML1 agonist | PINK1 modulator | CtBP-E1A inh | Six1-Eya2 inh | D2 agonist
Profile of Cn1nc(C2CC2)cc1NC(=O)C1(C)CCN1C(=O)CCc1ccccc1 (stereo not given) = 5 | 0.1 | 1.6% | 3 | 6 | -2.1
Profile of CC1=C(n2ccnc2)CCC1=O = 1 | -0.6 | -0.7% | 1 | 0 | -1.7

Some values from the list:
Under TRPML1 agonist, `COc1cc(/C=C2/S/C(=N/S(=O)(=O)Cc3ccccc3)NC2=O)c([N+](=O)[O-])cc1OC` has the entry 0.2
Under D2 agonist, `CCCCCCn1c(O)c(/C=C2\C=NN=C2c2ccccc2)sc1=S` has the entry -4.4
